# CBX7 inh – inhibitors of human CBX7 binding to H3K27me3 peptide | O95931 | AlphaScreen His6-CBX7 / biotin-H3K27me3 peptide binding; stronger effect = lower value | normalised signal (fraction of DMSO) (concentration not given with the values) | 1.1% of 66,000 active | AID 1224903; in the data active = normalised signal below about 0.5;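 note: 100 nL library stock added to about 20 µL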
# Target sequence (O95931 whole entry, looked up): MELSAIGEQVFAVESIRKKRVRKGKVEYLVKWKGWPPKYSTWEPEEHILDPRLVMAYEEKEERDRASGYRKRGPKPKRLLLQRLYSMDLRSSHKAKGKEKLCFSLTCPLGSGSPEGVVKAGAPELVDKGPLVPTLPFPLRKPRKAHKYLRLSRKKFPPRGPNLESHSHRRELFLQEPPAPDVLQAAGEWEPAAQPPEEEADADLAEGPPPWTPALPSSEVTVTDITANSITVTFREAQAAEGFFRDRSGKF
# CBX7 inh z-score – second read-out of CBX7 inh, no call of its own (marks repeat the call); z-score; measured here: z-score of CBX7 signal; some inactives read as strong as hits; reference of the scale not given here;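 same signal on another scale; lower means less binding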
# * hit, by the source's call.
SMILES,CBX7 inh,CBX7 inh z-score
COc1cc(NC(=O)c2cc(C3CC3)on2)c(OC)cc1Cl,0.96,-0.53
CC(C)(Oc1ccc(Cl)cc1)C(=O)Nc1c(-c2ccccc2)nc2ccccn12,1.3,2.6
COc1ccc(Cn2c(CCC(=O)Nc3cccc(OC)c3)nc3cccnc32)cc1,1,0.73
COc1ccc(-c2nc3ncccn3c2Nc2ccc(C)cc2C)cc1,1,0.59
CCc1cc(-c2n[nH]c(C)c2-c2ccc3c(c2)OCCO3)c(O)cc1O,0.69,-0.72

# Compounds from the list above containing an aryl methoxy group (3):
SMILES,CBX7 inh,CBX7 inh z-score
COc1cc(NC(=O)c2cc(C3CC3)on2)c(OC)cc1Cl,0.96,-0.53
COc1ccc(Cn2c(CCC(=O)Nc3cccc(OC)c3)nc3cccnc32)cc1,1,0.73
COc1ccc(-c2nc3ncccn3c2Nc2ccc(C)cc2C)cc1,1,0.59

# Only part of the results is shown; rates above refer to the full screens.
